High-throughput results (PubChem)
HNF4A DNA FP: change in binding of human HNF4 alpha to DNA; P41235; HNF4a-FITC DNA binding, fluorescence polarization, 1 h; activity change, % at 10 µM; actives 0.3% (n = 360,000); AID 1224865; in the data active = activity change above about 30%, passing the limit was not always enough;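 note: controls were the assay level and a saturating level of protein; the project sought stronger binding though the title names inhibitors; some compounds called inactive have numbers as strong as hits; positive values seem to mean higher polarization but the record does not say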
UCH37 DUB inh: inhibitors of human deubiquitinating enzyme UCH37 | AID 588478 | actives 0.33% (n = 330,000) | purified proteasome/UCH37, Ub-AMC cleavage fluorescence | inhibition, % (test concentration not listed) | Q9Y5K5;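 active = mean of two replicates above 20%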;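 note: 0% = compound-free wells with enzyme and 100% = wells lacking proteasome; stock transfer was 100 nL into about 20 µL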
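Material: Human UCH37 enzyme supplied as purified proteasome complex | Schedule: 30 min preincubation with enzyme, 25 min cleavage at room temperature | Detection: AMC fluorescence 355/460 nm | Measure: % inhibition of Ub-AMC cleavage fluorescence | Controls: Wells without proteasome as full block, compound-free enzyme plus substrate as uninhibited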
FGF22 binding: FGF22 (human) thermal shift binding; Q9HCT0; recombinant FGF22 thermal shift, SYPRO orange fluorescence; percent of sucrose octasulfate shift, DMSO zero; calls only at 9.99 µM; actives 1.5% (n = 340,000);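 active = melting point raised past a set limit in the mean and every replicate; three in four hits are not shown here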
Target sequence (Q9HCT0 whole entry, looked up): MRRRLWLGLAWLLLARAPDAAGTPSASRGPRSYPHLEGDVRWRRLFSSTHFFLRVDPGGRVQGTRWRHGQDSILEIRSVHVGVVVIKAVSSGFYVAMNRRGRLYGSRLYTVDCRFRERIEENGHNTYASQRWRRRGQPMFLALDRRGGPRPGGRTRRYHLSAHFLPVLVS
E coli growth: blocks Escherichia coli growth; OD600, 23 h; hits give low values; OD600 absorbance (no concentration beside the values); actives 0.21% (n = 330,000); AID 1053175;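 active = OD600 absorbance below the run mean of sample wells minus 3.6 SD, in any replicate, cut at about 0.56 in these data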;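 note: stock transfer was 300 nL into about 60 µL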
B2AR ag: activates human beta-2 adrenergic receptor causing internalization; response, % (test concentration not listed); Am2.2-beta2AR cells, FAP receptor internalization, flow cytometry; reference of the scale not given here; actives 0.43% (n = 340,000); AID 504454;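 active = response above a set limit, near 3 SD of response in nonfluorescent compounds, cut at about 42% in these data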;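 note: stock transfer was 100 nL into about 11 µL; a reference agonist was the positive control; negative values mostly stem from fluorescent compounds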
Target sequence (P07550 whole entry, looked up): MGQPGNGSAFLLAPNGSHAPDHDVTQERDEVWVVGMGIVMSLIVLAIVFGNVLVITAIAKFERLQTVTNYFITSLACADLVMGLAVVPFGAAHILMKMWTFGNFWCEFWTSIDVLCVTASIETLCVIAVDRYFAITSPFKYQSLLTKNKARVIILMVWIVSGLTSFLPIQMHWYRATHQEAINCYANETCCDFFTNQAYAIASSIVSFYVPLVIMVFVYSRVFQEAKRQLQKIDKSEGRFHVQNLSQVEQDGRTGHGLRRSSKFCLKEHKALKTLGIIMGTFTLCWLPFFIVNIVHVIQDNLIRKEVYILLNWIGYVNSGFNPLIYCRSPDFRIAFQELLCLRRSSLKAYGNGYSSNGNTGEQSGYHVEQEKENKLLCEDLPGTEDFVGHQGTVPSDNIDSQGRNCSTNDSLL
Ecoli rRNA inh: inhibits bacterial ribosomal RNA function over humanized ribosomes. E. coli WT GFP vs humanized-ribosome RFP mutants, fluorescence, 24 h; hits give low values; DMSO median 0, no signal -100. GFP signal change (wild-type ribosome), % (test concentration not listed). actives 1.6% (n = 350,000). AID 720706;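 active = significant combined selectivity score with lowered wild-type GFP, culture density cut under 30%, mutant RFP and density less affected; inactive = any of these conditions unmet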; note: one replicate is shown; some compounds called inactive have numbers as strong as hits
ALR inh: inhibitors of human sulfhydryl oxidase ALR; purified ALR, DTT oxidation, H2O2 HRP-luminol luminescence; inhibition, % (test concentration not listed); actives 3.8% (n = 290,000); AID 485317;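 active = mean and each replicate at 75% or more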;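 note: stock transfer was 7.5 nL into about 7.5 µL; 0% = neutral wells and 100% = wells with inactivated enzyme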
Target sequence (P55789 whole entry, looked up): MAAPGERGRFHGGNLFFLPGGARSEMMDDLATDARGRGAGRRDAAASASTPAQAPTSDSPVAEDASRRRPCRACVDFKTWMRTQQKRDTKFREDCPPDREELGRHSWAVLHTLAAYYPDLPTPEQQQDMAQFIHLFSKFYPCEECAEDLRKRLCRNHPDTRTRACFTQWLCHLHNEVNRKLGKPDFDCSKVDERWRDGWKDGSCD
Ecoli rRNA inh OD600: also measured in Ecoli rRNA inh; calls as there; OD600 change, %; measured here: OD600 growth;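 optical density of the mix in the first replicate; 0 = DMSO median and -100 = no signal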
Ecoli rRNA inh RFP: further read-out of Ecoli rRNA inh, marked with its call; RFP signal change, %; measured here: RFP humanized mutant strains;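 first replicate; 0 = DMSO median and -100 = no signal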
The depositor's hits bear a star; i = inactive; . = no result given; & = joins results of further samples. This is a subset (hit frequency here may not be typical).

| smiles | HNF4A DNA FP | UCH37 DUB inh | FGF22 binding | E coli growth | B2AR ag | Ecoli rRNA inh | Ecoli rRNA inh OD600 | Ecoli rRNA inh RFP | ALR inh |
| --- | --- | --- | --- | --- | --- | --- | --- | --- | --- |
| Cn1cccc1/C=N\NC(=O)Cc1ccc(Br)c2ccccc12 | 0.1 | . | . | . | -1.3 | . | . | . | 4.3 |
| COc1ccc(C2CC(c3ccccc3)n3nnnc3N2)cc1 (stereo unspecified) | 4.7 | -1.2 | . | 0.708 | -0.7 | . | . | . | 0.9 |
| CSCC[C@H](NC(=O)[C@H]1CC[C@H](CNC(=O)[C@@H](N)Cc2ccccc2)CC1)C(=O)O | -0.2 | . | i | . | 9.5 | 12.8 | 17.2 | -1.9 | -1.5 |
| COCCCn1c(=O)c2sccc2n2c(CCCC(=O)N(C)Cc3ccco3)nnc12 | 2.3 | 0.5 | i | 0.663 | -6.2 | 0.8 | 1.8 | -1.3 | -38.6 |
| CSc1nc2ccc(NC(=O)c3cccs3)cc2s1 | 2.1 | -0.3 | i | 0.631 | 5.7 | -23.7 | -32.2 | -8.2 | . |
| COc1ccc(Cc2nnc(NN)[nH]c2=O)cc1OC | -2.6 | 4.0 | i | 0.0805* | 10.8 | 6.4 | 13.2 | 0.0 | . |
| O=C(N/N=C/c1ccc2c(c1)OCO2)c1ccc2c(c1)OCO2 | -1.4 | . | i | . | 1.6 | -2.8 | 17.4 | 0.8 | 0.1 |
| CCOC(=O)N1CCN(S(=O)(=O)c2ccc3c(c2)CC(C)N3C(C)=O)CC1 (stereo unspecified) | -1.9 | 2.2 | i | 0.715 | -0.3 | -46.2* | -20.7* | -7.1* | -9.1 |
| CN(NC(=O)C(C)(C)C)c1nc(-c2ccccc2)nnc1C(F)(F)F | 1.6 | 0.3 | . | 0.731 | 6.5 | . | . | . | -11.0 |
| COc1cc2c(cc1OC)-c1cc(Nc3ccccc3)nc(=O)n1CC2 | -1.4 | -21.2 | i | 0.685 | 2.0 | -4.0 | -0.7 | -0.7 | -22.8 |
| COC(C[C@H](O)C[C@H](O)[C@@H](C)OCc1ccccc1)OC | 4.3 | . | i | . | -3.9 | 11.8 | 4.2 | 15.3 | -11.5 |
| FC(F)(F)c1cc(-c2cccs2)nc2ncnn12 | 6.1 | i | i | 0.638 | 3.6 | 16.2 | 0.5 | -2.5 | -5.3 |
| CC(C)C(C)(C#N)NC(=O)CSc1nc(C2CCCCC2)n(-c2ccccc2)n1 (stereo unspecified) | 2.2 | 0.9 | . | 0.641 | 1.5 | . | . | . | 3.1 |
| COc1ccccc1N1CCN(c2ncnc3sc(C)c(-c4ccccc4)c23)CC1 | 1.0 | 5.5 | . | 0.717 | 14.9 | . | . | . | . |
| O=c1c2c(nc3nc(NCc4ccc(Cl)cc4)[nH]n13)CCC2 | -1.4 | 6.4 | i | 0.68 | 2.8 | 22.8 | 33.4 | 0.1 | -3.9 |
| CCNC(=S)SCCOc1ccccc1C | 2.6 | 3.1 | i | 0.705 | 4.2 | -33.9* | 1.1* | 4.8* | -0.2 |
| CCC(=O)NC(c1ccco1)c1cc(Cl)c2cccnc2c1OC (stereo unspecified) | 1.6 | 0.7 | i | 0.682 | 2.1 | 2.7 | 4.9 | -9.1 | -10.3 |
| Cc1cccc(C)c1NC(=O)CN(C)C(=O)c1ccc2nc[nH]c2c1 | -1.5 | 2.9 | i | 0.69 | -5.4 | -1.2 | 11.4 | -0.7 | . |
| CCC(C)NC(=S)NNC(=O)c1ccc(C(C)(C)C)cc1 (stereo unspecified) | -0.5 | -1.1 | . | 0.718 | -1.2 | . | . | . | 9.3 |
| CCOCCN1CCN(C2c3ccccc3CSc3ccccc32)CC1 (stereo unspecified) | 2.7 | 4.5 | i | 0.643 | 13.2 | -24.7* | -1.7* | 2.4* | -5.4 |
| CC1(C)CC(=O)C(C=NCc2ccc3c(c2)OCO3)=C(O)C1 | -0.2 | 1.4 | . | 0.706 | -6.8 | . | . | . | -7.5 |
| O=C1c2ccccc2S(=O)(=O)N1Cc1cc(=O)n2ccsc2n1 | 0.1 | . | . | . | 7.9 | . | . | . | -0.7 |
| COc1ccc(NC(=O)COC(=O)C2CC2)cc1S(=O)(=O)N1CCCCC1 | -2.3 | 0.9 | i | 0.657 | 1.5 | 8.5 | 9.1 | 3.5 | -3.7 |
| CCCC(=O)Nc1ccc(NC(=O)c2ccccn2)cn1 | -5.7 | 4.8 | . | 0.665 | -10.5 | . | . | . | -6.3 |
| COC(=O)C1C(=O)C(C(=O)/C=C/c2ccccc2)C(=O)CC1(C)C (stereo unspecified) | -3.5 | 5.0 | i | 0.71 | 22.5 | 8.8 | -2.6 | -0.5 | -8.0 |
| CCC(C)(C)n1nnnc1C(c1cc2cc(C)cc(C)c2[nH]c1=O)N1CCCC1 (stereo unspecified) | 6.0 | -18.9 | . | 0.657 | -2.4 | . | . | . | . |
| O=C(Nc1cccc(-c2ccc(N3CCOCC3)nn2)c1)c1ccccc1 | 1.4 | 5.0 | i | 0.655 | 2.7 | -1.4 | -4.0 | -2.3 | . |
| CCCCC[C@@H](C)N1C[C@@H](COCc2ccccc2)Oc2cc(N3CC[C@H](O)C3)ccc2S1(=O)=O | 2.0 | . | i | . | . | -7.4 | -10.6 | 0.6 | . |
| COc1ccc(C(C)=O)cc1Cn1c(C)c(C(=O)NCc2cccc(Cl)c2)sc1=O | 0.6 | . | i | . | . | -11.2 | -7.1 | -2.5 | . |
| O=C(CNC(=O)c1cccc(Cl)c1)NCCCSc1ccccc1 | -1.0 | 3.7 | i | 0.704 | -1.6 | -13.1 | -21.7 | 2.0 | -7.2 |
| CC(C)NC(=O)[C@]1(C)CCC[C@@]2(C)C3CC[C@@]4(C)C[C@]3(CCC21)CC4=O (stereo partly specified) | -2.4 | 1.8 | i | 0.678 | 5.5 | -35.5 | -44.1 | -12.0 | 8.0 |
| CC(C)N1CCC(N2CCN(Cc3nc4ccccc4s3)CC2CCO)CC1 (stereo unspecified) | 0.7 | -0.4 | i | 0.69 | -3.4 | 12.3 | 1.6 | -1.8 | . |
| Cc1ccc(OCCn2c(Br)nc3c2c(=O)n(C)c(=O)n3C)cc1 | -2.5 | 4.0 | . | 0.703 | -7.4 | . | . | . | 1.9 |
| CCOC(=O)Cc1csc(NC(=O)c2ccc(S(=O)(=O)N3CCCCC3)cc2)n1 | -1.4 | 1.1 | . | 0.734 | 11.5 | . | . | . | 19.5 |
| COc1cccc2cc(-c3nc4ccccc4o3)c(=O)oc12 | 0.0 | -24.1 | i | 0.692 | -9.4 | 9.4 | 3.2 | 5.0 | -10.9 |
| CCn1cc(C(=O)N[C@H](C(=O)NCCCn2ccnc2)C(C)C)c(=O)c2cc3c(cc21)OCO3 | -0.1 | -12.4 | i | 0.564 | -7.6 | -9.2 | -9.5 | 4.0 | 7.5 |
| Cc1nc(N2CCN(c3ccccn3)CC2)c2c(C)c(C(=O)Nc3ccc(Br)cc3C)sc2n1 | -5.2 | -36.9 | i | 0.746 | 2.0 | 1.7 | 18.4 | -0.5 | -1.8 |
| Cc1cc(C)cc(NC(=O)CSc2cc(C(=O)c3nccn3C)c3ccccc3n2)c1 | 0.3 | 8.6 | . | 0.695 | 3.0 | . | . | . | -0.6 |
| CCOC(=O)c1cnc(SCC(C)C)nc1N | -2.4 | 0.9 | . | 0.682 | -10.4 | . | . | . | . |
| O=C(NCCc1ccccc1)C1CC(=O)N(C2CCCC2)C1 (stereo unspecified) | 1.0 | -0.2 | i | 0.702 | 3.8 | 11.3 | 4.2 | 2.0 | -3.5 |
| Cc1ccc(SCC(=O)NNC(=O)c2ccccc2)c(C)c1 | 1.0 | -1.6 | i | 0.681 | -1.3 | 2.4 | -7.7 | 1.5 | 0.0 |
| O=C(CN1C(=O)NC2(CCCC2)C1=O)Nc1nc(-c2ccc(F)c(F)c2)cs1 | -2.2 | -0.4 | i | 0.672 | 14.3 | . | . | . | 1.8 |
| O=C1C2C3C=CC(C3)C2C(=O)N1CCC(=O)N1CCc2ccccc21 (stereo unspecified) | 3.9 | 1.2 | . | 0.705 | 5.0 | . | . | . | 0.2 |
| CCCCC1C(C#N)=C(C)NC2=C1C(=O)CC(C)(C)C2 (stereo unspecified) | 1.6 | -295.8 | . | 0.699 | 2.7 | . | . | . | -1.9 |
| COc1ccc(N=Cc2c(OC)ccc3ccccc23)cc1 | 0.0 | 1.9 | i | 0.693 | -5.2 | . | . | . | -9.1 |
| CCN1CCCC1CNC(=O)c1cc(S(N)(=O)=O)ccc1OC (stereo unspecified) | 0.4 | -0.2 | i | 0.657&0.702 | -1.0 | -4.8 | -4.7 | -1.2 | -5.1 |
| C=C(C)Cn1c(Sc2nnc(C)s2)nc2c1c(=O)[nH]c(=O)n2C | 4.5 | 1.2 | . | 0.73 | -6.4 | . | . | . | -17.4 |
| O=C(/C=C/c1ccc([N+](=O)[O-])cc1)Nc1ncc([N+](=O)[O-])s1 | -1.1 | 9.2 | i | 0.665 | 15.8 | -7.5 | -7.5 | 2.3 | . |
| CCCn1c(SCC(=O)Nc2cccc(S(=O)(=O)N(C)C)c2)nc2ccccc2c1=O | -0.3 | 2.7 | i | 0.733 | -4.8 | -22.9 | -19.1 | -0.6 | -3.7 |
| CCC(C)SCc1nc2ccccc2[nH]1 (stereo unspecified) | -5.0 | 2.7 | . | 0.712 | 8.9 | . | . | . | -25.5 |

(continued)
| smiles | HNF4A DNA FP | UCH37 DUB inh | FGF22 binding | E coli growth | B2AR ag | Ecoli rRNA inh | Ecoli rRNA inh OD600 | Ecoli rRNA inh RFP | ALR inh |
| --- | --- | --- | --- | --- | --- | --- | --- | --- | --- |
| CCOC(=O)CN1C(=O)C(O)=C(C(C)=O)C1c1ccc(F)cc1 (stereo unspecified) | -2.6 | 5.4 | . | 0.773 | -0.1 | . | . | . | . |
| CCOC(=O)c1cc2c(ccn2C)n1CC(=O)N(C)C | -4.7 | 4.4 | i | 0.71 | -6.1 | 7.3 | -0.4 | 1.4 | -3.2 |
| O=C(N[C@@H]1CCC(=O)N(CC[C@H](Sc2ccc(Br)cc2)c2ccccc2)CC1)OCc1ccccc1 | 0.3 | 1.4 | i | . | 6.0 | -2.0 | -3.0 | -1.1 | -4.5 |
| O=C(Nc1csc([N+](=O)[O-])c1)Nc1c(Cl)cccc1Cl | 2.1 | 2.4 | i | 0.592 | 3.6 | -31.6* | -21.2* | 4.8* | -4.9 |
| CN(C)CCn1c(COc2ccccc2)nc2ccccc21 | -1.9 | 8.3 | i | 0.628 | -12.2 | 7.9 | 2.0 | -1.1 | 1.6 |
| O=C1/C(=C\c2ccc(Br)o2)SC(=Nc2ccccc2)N1c1ccccc1 | 0.7 | 6.3 | . | 0.734 | -0.1 | . | . | . | 2.9 |
| Cc1ccc(S(=O)(=O)NNC(=O)c2csnn2)cc1 | -0.9 | 2.2 | i | 0.723 | 5.9 | 9.1 | 12.6 | -2.2 | 37.8 |
| Cn1c(=O)c2c(nc(N3CCCCC3)n2CCCNC2=NCCCC2)n(C)c1=O | -0.6 | . | . | 0.704 | -5.1 | . | . | . | -1.6 |
| Cn1c(CSCc2ccccc2Cl)n[nH]c1=S | 1.6 | 6.4 | i | 0.669 | 5.5 | -3.9 | 0.0 | 0.2 | 57.0 |
| O=C(COC(=O)Cc1ccc(S(=O)(=O)N2CCOCC2)s1)Nc1ccccc1 | 2.5 | 3.2 | i | 0.722 | 4.7 | 0.4 | 8.1 | 4.3 | -1.6 |
| CC(=O)OCC(=O)Nc1ccc(C(C)=O)cc1 | -1.1 | 3.1 | . | 0.675 | 0.8 | . | . | . | -20.2 |
